Sa growth 42C: S. aureus growth inhibition at 42 and 30 °C, primary screen, LtaS inhibitor project, RN4220, two temperatures; OD600, 20 h, 42 °C; stronger effect = lower value; relative growth, % (concentration not given with the values); 0.53% of 170,000 active; AID 720641, 2013;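 active means growth at 42 °C up to 50% and 20 or more points under that at 30 °C, or under 10% at both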;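 further: 300 nL library stock went into each well; scaled to the means of positive and negative controls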
GIV-Gai inh: inhibitors of GIV peptide binding to Galpha-i3, primary screen, biochemical, fluorescence polarization, FITC-GIV GBA peptide, rat Galphai3; Guanine nucleotide-binding protein G(i) subunit alpha-3 (Rattus norvegicus), P08753; 0.42% of 210,000 active; 90 min; stronger effect = lower value; scaled: aluminum fluoride 0%, vehicle 100%; percent of control (FP), % (concentration not given with the values); AID 1224905, 2016;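 active means replicate mean at 85% of control or lower, very high polarization wells dropped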;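 further: wells of about 15 µL received 100 nL stock; the first replicate is given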
Target sequence (P08753 whole entry, looked up): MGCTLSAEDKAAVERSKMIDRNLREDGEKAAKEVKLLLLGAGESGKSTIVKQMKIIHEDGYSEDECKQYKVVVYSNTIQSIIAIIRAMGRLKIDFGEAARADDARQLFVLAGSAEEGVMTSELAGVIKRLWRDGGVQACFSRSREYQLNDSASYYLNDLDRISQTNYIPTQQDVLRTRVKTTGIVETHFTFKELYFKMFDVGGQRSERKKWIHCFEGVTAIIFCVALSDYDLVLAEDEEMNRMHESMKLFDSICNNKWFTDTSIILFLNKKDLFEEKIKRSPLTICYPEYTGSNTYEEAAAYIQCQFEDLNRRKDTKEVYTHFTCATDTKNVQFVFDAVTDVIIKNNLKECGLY
HCMV NEC inh: inhibitors of HCMV UL50-UL53 interaction, biochemical, HTRF | HCMV UL50-UL53 nuclear egress complex (human cytomegalovirus) | normalized percent inhibition | inhibition, % (test concentration not listed) | 0.15% of 190,000 active | AID 1918969, 2023;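 active means both replicates at 50% or more, plus weaker picks with an unusually low signal ratio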;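 further: stock transfer was 100 nL into about 20 µL; 0% = negative control wells and 100% = wells with untagged competitor protein; inactives centre near -12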
Sa growth 42C second temp: recorded beside Sa growth 42C, whose call it bears; relative growth, %; measured here: growth at 30 °C;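 optical density after 20 h as mean of two plates; 100% = untreated growth and lower means inhibition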
Starred values were filed as active, the others as inactive; / = no result given; & = joins results of further samples.

Screens in order – GIV-Gai inh | HCMV NEC inh | Sa growth 42C | Sa growth 42C second temp
Cn1cccc1C(=O)OCc1ccc(C(C)(C)C)cc1
  / | 5.8 | 108.7 | 94.9
O=S(=O)(NCCN1CCOCC1)c1cccc(C(F)(F)F)c1
  95.3 | -2.9 | 113.9 | 90.8
NNC(=O)c1cc(N)c(=O)[nH]n1
  105.3 | -60.7 | 101.8 | 88.3
CCOc1ccc(NC(=O)CN(C)CC(=O)NC2CCCc3ccccc32)cc1OCC (configuration not stated)
  / | -25.1 | 109.2 | 92.2
CCOc1cc(/C=C2/SC(=S)N(CC(=O)O)C2=O)ccc1OCc1ccccc1
  103.6 | -61.4 | / | /
Cc1cc2nc(C(=O)NCc3ccc4c(c3)OCO4)c(=O)n(C)c2cc1C
  104.3 | -95.4 | / | /
O=C(OCC(=O)N1CCc2ccccc2C1)c1cccs1
  / | -26.7 | 132.4 | 89.7
CNC[C@H](O)c1cccc(O)c1
  93.6 | 5.7&9.2&-6.2 | 101.6 | 101.0
O=C(O)c1c(-c2cccs2)nnc2ccccc12
  109.1 | 5.8 | 99.5 | 77.4
O=C(COC(=O)c1ccncc1)NC12CC3CC(CC(C3)C1)C2
  / | -29.4 | 106.8 | 89.7
CC(=O)NCCc1nc2ccccc2n1Cc1ccc(C(C)C)cc1
  101.2 | / | 98.0 | 88.3
CCCCC(=O)N(C)CCc1noc(COc2ccccc2)n1
  102.7 | -15.8 | / | /
Cc1cc(O)c(C(c2ccccc2)N2CCCCC2)c(=O)n1Cc1ccco1 (configuration not stated)
  98.2 | / | 80.4 | 89.8
Cc1ccn(CCC(=O)Nc2nccs2)n1
  100.3 | -9.3 | 101.5 | 91.3
CC(=O)N1CCC(N(C(=O)Nc2c(F)cccc2F)C(C)C)CC1
  104.6 | / | 98.7 | 93.7
O=C(CCN1C(=O)C2C3C=CC(C3)C2C1=O)Nc1cccc2ccccc12 (configuration not stated)
  98.6 | -29.1 | 108.9 | 91.9
Cc1ccc(Cc2c(C)[nH]c3[nH]n(-c4ccccc4)c(=O)c3c2=O)cc1
  93.1 | -35.6 | 104.0 | 80.3
Cc1nccc2[nH]c(=O)c(C(=O)NCCc3ccc(Cl)cc3)cc12
  111.3 | 11.4 | 116.2 | 104.7
CNS(=O)(=O)c1ccccc1C(=O)N/N=C/c1ccc(OC)c(OC)c1
  103.3 | -104.1 | 92.2 | 103.8
CCOC(=O)c1c(NC(=O)CSc2cc(-c3ccccc3)nc(C)n2)sc(C)c1C
  98.1 | -16.0 | / | /
COc1cc(C(=O)Nc2nnc(-c3ccc(Br)cc3)s2)cc(OC)c1OC
  103.6 | -7.5 | / | /
CS(=O)(=O)N(CC(=O)Nc1cccc(F)c1)c1cccc(F)c1
  96.7 | -8.9 | 102.4 | 94.4
COc1ccc(CCN2C(=O)c3[nH]nc(-c4ccccc4O)c3C2c2ccc(O)c(OC)c2)cc1 (configuration not stated)
  103.8 | -1.1 | 109.2 | 68.8
O=C(NCCc1ccccc1)c1ccc(Nc2nc3ccccc3n3nnnc23)cc1
  103.8 | -3.4 | 129.2 | 96.9
Cn1c(=O)c2c(-c3ccccc3Br)n(C(CO)(CO)CO)cc2n(C)c1=O
  106.7 | -15.3 | 96.5 | 80.3
CCOC(=O)c1noc2nc(C)n(Cc3cccc(C#N)c3)c(=O)c12
  100.6 | / | 98.5 | 89.1
CSC(N)=NCc1ccco1
  103.8 | 6.5 | 105.6 | 105.9
O=C(NCCc1ccccc1)c1cnn2cccnc12
  103.4 | -18.1 | 89.3 | 102.4
Cc1oc(-c2ccccc2)nc1CSc1nc(-c2ccncc2)cc(=O)[nH]1
  98.5 | -2.2 | / | /
CCc1cccc(C)c1NC(=O)Nc1csc2c1CCCC2
  100.1 | -9.4 | 108.9 | 96.2
COc1ccc2c(C)c(CC(=O)NCCc3ccccc3)c(=O)oc2c1OC
  97.3 | -20.5 | 104.5 | 87.1
CN1C(=O)CS/C1=N/N=C/c1cn(-c2ccccc2)nc1-c1ccccc1
  111.5 | -23.5 | 105.8 | 66.3
Clc1ccc(-c2nnc(C(c3ccccc3)N3CCN(c4ccccc4)CC3)o2)cc1 (configuration not stated)
  100.6 | -23.8 | / | /
O=S(=O)(Nc1cccc(N2CCCS2(=O)=O)c1)c1cc(F)ccc1F
  101.1 | -11.0 | / | /
c1ccc(Cc2ccccc2-c2nnc(-c3cccnc3)o2)cc1
  / | -19.5 | 93.9 | 88.5
Cc1ccc(-c2nnc(Nc3ccc(Cl)c(Cl)c3)c3ccccc23)cc1S(=O)(=O)N(C)C
  108.0 | -55.7 | 102.3 | 86.9
O=C(OC1(C(F)(F)F)C(=O)Nc2cc3c(cc21)OCCO3)c1ccc(S(=O)(=O)N2CCCCCC2)cc1 (configuration not stated)
  / | -18.7 | 93.9 | 92.4
COc1cccc(/C=C/C(=O)OCC(=O)Nc2ccccc2)c1
  / | -46.4 | 124.5 | 86.4
Cc1ccc2c(cnn2C(=O)CCC(=O)NCc2ccccc2)c1
  107.5 | -7.5 | 86.4 | 80.4
Cc1cccc(NC(=O)Cn2c(=O)n(CCC(=O)NCc3ccco3)c(=O)c3ccccc32)c1
  98.6 | / | 104.2 | 90.2
COc1ccc(-n2nc(C(=O)Nc3cc(C)ccn3)c3c4ccccc4n(C)c3c2=O)cc1Cl
  100.3 | -1.9 | 99.5 | 94.2
CN1CCN(c2ncnc3c2cnn3-c2ccccc2)CC1
  97.1 | -37.6 | 89.7 | 90.9
C#CC(CC)(CC)NC(=O)COc1ccccc1Cl
  / | -14.6 | 103.5 | 97.0
COc1ccc(CCN(C)CC(=O)Nc2c(C)cc(C)cc2C)cc1OC
  106.6 | 7.0 | 105.4 | 93.2
Cc1cc(C)cc(NC(=O)Cc2c(C(=O)O)c(C)cn2C)c1
  102.1 | / | 103.4 | 88.2
COc1cc2ncc(S(=O)(=O)c3ccccc3)c(N3CCN(c4ccccc4F)CC3)c2cc1OC
  102.6 | 11.9 | 98.0 | 96.3
CCn1c(Cn2nc(C(=O)O)c3ccccc3c2=O)nc2cc(S(=O)(=O)N(C)C)ccc21
  / | -28.5 | 74.3 | 93.5
CS(=O)(=O)c1nsc(S(C)(=O)=O)c1C#N
  104.5 | 1.0 | 93.3 | 89.7
COc1ccc(C2=Nc3ccccc3NC(c3cccs3)=N2)cc1
  101.6 | -2.4 | 109.6 | 103.7
O=C(CSc1ccc2nc(-c3ccccc3)cn2n1)Nc1ccccc1C(F)(F)F
  101.7 | / | 95.9 | 81.9
COc1ccc(Cn2c(=O)c3oc4ccccc4c3n(Cc3ccc(F)cc3)c2=O)cc1
  104.1 | / | 117.0 | 97.3
Cc1nc(-c2cccc(Cl)c2)cs1
  104.1 | -29.9 | 93.7 | 87.3
CCOC(=O)c1sc(N)c(C#N)c1CSc1ncnc2sc3c(c12)CCC3
  / | -31.3 | 73.0 | 79.8
Cc1ccc(CCNc2ncnc3onc(-c4ccc(F)cc4)c23)cc1
  104.6 | / | 88.0 | 90.8
O=C(Nc1ccccc1)c1ccc(N2C(=O)CCC2=O)cc1
  / | -36.9 | 107.2 | 75.5
C(=N\n1nnnc1Nc1ccccc1)/c1ccc(OCc2ccccc2)cc1
  / | 1.4 | 98.2 | 88.4
COc1ccc(N2CCN(C(=O)CCS(=O)(=O)c3ccc4c(c3)NC(=O)CO4)CC2)cc1
  99.5 | -17.7 | 118.2 | 86.5
CC(C(=O)O)N1C(=O)/C(=C/c2ccccc2)SC1=S (configuration not stated)
  106.1 | -64.4 | / | /
CC1(C)Cc2ccccc2C(=NCC(=O)O)N1
  94.0 | -3.7 | 110.5 | 79.8
CC(C)c1ccc(CNC(=O)c2ccc(N3CCCC3)c(NC(=O)NCc3ccccc3)c2)cc1
  99.7 | / | 101.7 | 93.3

Additional entries.
Screens in order – GIV-Gai inh | HCMV NEC inh | Sa growth 42C | Sa growth 42C second temp
COCCn1c(=C(C#N)C#N)s/c(=C/c2ccc(C)s2)c1=O
  / | -15.7 | 108.0 | 92.5
Cc1nc(-c2ccc(S(=O)(=O)N(C)Cc3ccccc3)cc2)co1
  106.1 | / | 115.0 | 80.5
CN(C)C(=O)c1ccc2c(c1)N(CC(=O)NCc1ccc(Cl)cc1)C(=O)CS2
  106.5 | -27.7 | / | /
CCn1cnc(S(=O)(=O)N2CCCC(C(=O)NC3CCCCC3)C2)c1 (configuration not stated)
  104.3 | -6.7 | / | /
FC(F)(F)c1cc(-c2ccccc2)nc(N2CCCC2)n1
  99.6 | / | 102.4 | 92.1
COc1ccccc1NC(=O)NC1CCN(c2cc(C)nc3ncnn23)CC1
  106.7 | -16.0 | / | /
O=C(CSc1c(-c2ccccc2)c2cc(Cl)ccc2[nH]c1=O)N1CCN(C(=O)c2ccco2)CC1
  101.5 | -8.3 | 101.5 | 83.9
Cc1cc2c(cc1S(=O)(=O)N1CCCC(C(=O)N3CCC(N4CCCCC4)CC3)C1)OC(C)C(=O)N2 (configuration not stated)
  106.1 | -15.0 | / | /
FC(F)(F)c1cccc(NC(=S)N2CCn3cccc3C2c2cccnc2)c1 (configuration not stated)
  102.2 | / | 66.5 | 23.6
O=c1cc(CN2CCOCC2)nc2nc(-c3ccc(F)cc3)[nH]n12
  108.0 | -24.7 | / | /
COc1cc(OC)c(NC(=O)NCCc2c(C)nn(C)c2C)cc1Cl
  106.1 | -4.3 | / | /
CCOCCCNC(=O)C1CCN(c2cc(C)nc3c(-c4ccc(Cl)cc4)c(C)nn23)CC1
  108.3 | -34.8 | 96.9 | 88.7
COc1ccccc1CNC(=O)C(NS(=O)(=O)c1cccs1)C(C)C (configuration not stated)
  102.5 | 3.8 | 99.5 | 86.9
c1ccc(CCN2CN(Cc3ccccc3)c3nc4ccccc4n3C2)cc1
  99.9 | -22.8 | 110.2 | 110.3
CCOC(=O)N1CCC(Nc2nc(N3CCCC3)nc(N3CCCC3)n2)CC1
  98.0 | -3.2 | 93.1 | 83.1

Grouped by structure: the entries above containing bromine
Screens in order – GIV-Gai inh | HCMV NEC inh | Sa growth 42C | Sa growth 42C second temp
COc1cc(C(=O)Nc2nnc(-c3ccc(Br)cc3)s2)cc(OC)c1OC
  103.6 | -7.5 | / | /
Cn1c(=O)c2c(-c3ccccc3Br)n(C(CO)(CO)CO)cc2n(C)c1=O
  106.7 | -15.3 | 96.5 | 80.3

(further entries)
Screens in order – GIV-Gai inh | HCMV NEC inh | Sa growth 42C | Sa growth 42C second temp
NNc1nc(-c2ccccc2)cc(-c2ccc(Br)cc2)n1
  100.1 | -15.4 | 74.8 | 42.8
CCN(CC)C(=O)C1CCN(S(=O)(=O)c2ccc(C)cc2)CC1
  101.4 | 4.6 | 95.3 | 101.7
O=c1c2ccccc2nc2c(-c3nc(-c4ccc5c(c4)OCO5)no3)cccn12
  57.9* | -18.3 | / | /
CN(C)CCNC(=O)c1ccc(-c2nn(C)c(=O)c3ccccc23)cc1
  109.5 | 4.6 | 100.0 | 104.4
COc1cc(C(=O)Oc2ccc(Cl)c3cccnc23)cc(OC)c1OC
  / | 4.6 | 100.0 | 103.6
CCc1nnc(NC(=O)CSc2nnc(Cc3c(C)nc4cc(C)ccn4c3=O)n2C)s1
  105.1 | -13.2 | / | /
C=CCC(N)(CC=C)c1ccc(C)cc1
  / | -7.3 | 89.9 | 85.6
CCOCCOC(=O)c1ccc2c(c1)N(Cc1cccc(Cl)c1)C(=O)c1ccccc1S2
  100.7 | -7.7 | / | /
O=C(OCC(=O)N1CCCCC1)c1ccc(-c2nc3ccccc3s2)s1
  / | -7.9 | 92.3 | 97.9
Cc1cc(/C=C2/NC(=O)N(Cc3ccccc3F)C2=O)c(C)n1C
  103.5 | -19.4 | 99.0 | 96.7
COc1ccc(/C=C2\SC(=O)N(CCNC(=O)[C@@H]3CCCN3C(=O)OC(C)(C)C)C2=O)cc1
  / | -64.3 | 96.6 | 95.7
COc1cccc2c1c(NC(=O)c1cc3ccccc3s1)nn2C
  107.6 | -3.2 | 111.2 | 83.5
COc1ccc(-c2nc3c4cnn(-c5cccc(C)c5)c4ncn3n2)cc1
  101.9&106.4 | 12.7 | 90.1 | 86.1
Cc1c(N2CCN(C(=O)c3[nH]nc4c3CCc3ccccc3-4)CC2)c(=O)n(C)c(=O)n1C
  102.8 | -6.9 | / | /
CCCN1CCN(CCCNC(=O)c2ccc3c(c2)sc2nc(-c4ccc(C)cc4)cn23)CC1
  112.7 | / | 125.6 | 81.2
O=C(c1sc2cc([N+](=O)[O-])ccc2c1Cl)N1c2ccccc2CCc2ccccc21
  103.1 | -23.8 | / | /
O=C(CCS(=O)(=O)c1cc(Br)cc2c1N(C(=O)C1CC1)CC2)N1CCCCCC1
  102.3 | 0.9 | 108.8 | 87.8
COc1ccc2[nH]cc(CCNC(=O)c3ccccc3)c2c1
  100.1 | -8.6 | / | /
Cc1cc2c(cc1S(=O)(=O)N1CCOCC1)n(C)c(=O)c(=O)n2C
  101.9 | -19.9 | 106.6 | 88.5
COc1ccc(Cl)cc1N1C(=O)[C@@H]2CCCN2[C@H]1c1ccc(Cl)cc1
  100.8 | -29.6 | / | /
Cc1nc2ccccc2c2oc(C(=O)N3CCc4ccccc43)cc12
  101.8 | -2.6 | 92.4 | 81.2
COc1ccc(C)cc1-n1c(=O)c2ccccc2n2c(SCc3cc(=O)n4c(C)csc4n3)nnc12
  / | -2.2 | 100.7 | 94.7
Cc1cccc(N2CCN(C(=O)CCn3c(=O)c4cccn4c4cccnc43)CC2)c1C
  98.4 | / | 85.2 | 73.6
CCCOc1ccc(-c2nc(N(CC)CC)c3ccccc3n2)cc1
  99.2 | / | 99.5 | 83.0
